# Rango dissoc inh – prevents RanGTP from dissociating the Rango-importin beta complex; O95149+P62826; Biochemical FRET Rango-importin beta, RanGTP-induced dissociation; Potency, µM (titrated, usually from 46.1 µM), for the others: at the top dose activity change, negative = inhibition; 340,000 tested, 0.071% active; AID 540253; active means falling FRET ratio curve, often poorly fitted, with flat reads before Ran was added; inconclusive means other falling curves, or compound fluorescence or quenching; inactive means flat or rising ratio curve;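 further: potency means the concentration at half of the fitted maximal effect; % of control where 0% means no effect; nearly all actives have a fitted effect of over 45% in size; -100% = wells without RanGTP and RCC1; the record marks most hits as doubtful in a second field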
#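 Compounds sat 5 min at room temperature with 0.1 uM Rango biosensor plus 0.25 uM importin beta, then FRET pre-read. RanGTP-RCC1 (0.6 uM Ran, 2mM GTP, 0.2 uM RCC1) added for 45 min, and the CFP/YFP post-read measured blocked complex dissociation.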
# GLA inh pH 4.5 – alpha-galactosidase A (human) inhibition, pH 4.5; 230,000 tested, under 10 active; activity change, negative = inhibition, % at 105 µM; purified enzyme, 4-MU-alpha-Gal fluorescence, pH 4.5; P06280; inconclusive = small, poorly fitted or top-dose-only inhibition, or a rising curve; inactive = flat fitted curve, though single readings scatter; no compound was filed as active;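 further: 0% = full activity with enzyme and -100% = basal without enzyme; dose as in the result columns while the protocol names 77 µM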
# Rango complex inh – Rango-importin beta binding inhibition; Q14974; Rango CFP/YFP FRET sensor + importin beta, 45 min; Potency, µM (series often up to 92.2 µM), inactives show at the top dose inhibition of complex formation; 340,000 tested, 0.031% active; active = rising FRET ratio curve, often small or poorly fitted; inconclusive = mostly compound fluorescence or quenching in the first reads; inactive = flat curves in all reads;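 further: potency means the concentration at half of the fitted maximal effect; 0% = DMSO wells and 100% = buffer wells lacking importin beta; nearly all actives have a fitted effect of over 15% in size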
# Target sequence (Q14974 whole entry, looked up): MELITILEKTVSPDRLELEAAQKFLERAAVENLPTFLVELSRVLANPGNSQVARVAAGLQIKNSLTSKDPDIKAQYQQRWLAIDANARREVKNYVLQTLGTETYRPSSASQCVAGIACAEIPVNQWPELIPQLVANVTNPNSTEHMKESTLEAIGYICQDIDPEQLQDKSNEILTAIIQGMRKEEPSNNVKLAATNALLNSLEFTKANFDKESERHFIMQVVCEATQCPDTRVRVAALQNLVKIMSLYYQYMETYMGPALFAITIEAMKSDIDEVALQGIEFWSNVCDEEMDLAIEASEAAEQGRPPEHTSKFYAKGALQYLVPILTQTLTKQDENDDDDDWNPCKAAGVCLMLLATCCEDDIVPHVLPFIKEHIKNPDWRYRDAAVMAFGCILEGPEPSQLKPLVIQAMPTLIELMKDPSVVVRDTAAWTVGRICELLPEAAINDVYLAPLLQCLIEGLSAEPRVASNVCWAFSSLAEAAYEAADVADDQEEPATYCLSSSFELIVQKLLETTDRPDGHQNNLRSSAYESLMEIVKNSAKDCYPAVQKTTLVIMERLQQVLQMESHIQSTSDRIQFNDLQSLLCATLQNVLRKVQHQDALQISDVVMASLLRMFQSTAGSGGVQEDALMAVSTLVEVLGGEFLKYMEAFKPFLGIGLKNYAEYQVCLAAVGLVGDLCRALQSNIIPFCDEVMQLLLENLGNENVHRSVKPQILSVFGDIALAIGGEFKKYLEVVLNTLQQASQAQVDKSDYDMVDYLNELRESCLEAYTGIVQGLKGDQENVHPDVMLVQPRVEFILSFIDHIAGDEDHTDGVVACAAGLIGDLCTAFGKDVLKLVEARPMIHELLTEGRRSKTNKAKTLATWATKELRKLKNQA
#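 Inhibition scored from the CFP 486 nm/YFP 530 nm FRET ratio 45 min after adding 0.125 microM importin beta to 50 nM Rango biosensor preincubated 5 min with compound (room temperature, PBS with DTT, Tween-20, BSA). No-importin wells as positive control.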
# miR-21 reporter – raises the signal of a miR-21 reporter. Potency, µM (titrated, usually from 38.3 µM), inactives show at the highest dose reporter change, positive = more light. HeLa miR-21 FLuc reporter, luciferase, 48 h. 340,000 tested, under 10 active; active = well fitted rising curve with a large enough effect; inconclusive = small, poorly fitted or top-dose-only effect; inactive = no such curve, though single readings can be large or run the other way;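 further: % of control where 0% means no effect; miR-21 action dims this reporter so a rising signal means less miR-21 action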
#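 Compounds were titrated across several concentrations (up to approximately 40 uM) and incubated 48 hours with HeLa miR-21-FLuc reporter cells (miR-21 target sequence downstream of FLuc, endogenous miR-21). Readout was firefly luciferase luminescence after lytic detection reagent.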
# An asterisk follows results filed as active; u = inconclusive; x = no result given; & = joins results of further samples. An excerpt; count on the stated rates, not on these rows.
# Sequence of screens: Rango dissoc inh	GLA inh pH 4.5	Rango complex inh	miR-21 reporter
> COc1cc(/C=C(/NC(=O)c2ccc(Cl)cc2Cl)C(=O)O)cc(OC)c1OC
    11%	-2	4.9%	-2%
> Cc1ccc(N/N=C2/CCCNC2=O)cc1
    12%	1	0.6%	-20%
> Cn1c(=O)c2sccc2n(Cc2cccc(Br)c2)c1=O
    6%	x	1.8%	3%
> CN(C)C(=O)CSc1nnc(Cc2ccccc2)n1Cc1ccco1
    3%	4	-3.4%	-2%
> COc1cc(NC(=O)c2nccnc2N)cc(C(=O)Nc2cccc(C(F)(F)F)c2)c1
    u	-6	-13%	6%
> CCC(=O)Oc1cccc(C(=O)Nc2cccc(NC(=O)c3ccco3)c2)c1
    -2%	x	-0.8%	5%
> O=c1[nH]c(SCc2ccc(Cl)cc2)nc2ccsc12
    1%	-1	-1.0%	-53%
> Cc1ccc(C(=O)N2CC(=O)Nc3ccc(F)cc3C2c2ccccc2)cc1 (stereo not given)
    3%	x	1.6%	2%
> CC(=O)Nc1cccc(NC(=O)c2c(-c3ccccc3Cl)noc2C)c1
    -9%	0	2.6%	13%
> c1ccc2c(c1)nc(CN1CCOCC1)n1c3ccccc3nc21
    -3%	1	-1.0%	-12%
> COc1ccccc1N(CC(O)CN1CCOCC1)S(=O)(=O)c1ccccc1 (stereo not given)
    8%	x	-0.1%	0%
> Cc1cc2cc(CNC(=O)c3cccs3)ccc2n1C
    u	7	0.0%	-48%
> Cc1cc2cc(C)c3nnc(SCC(=O)NCc4ccco4)n3c2cc1C
    -11%	-2	7.2%	-23%
> COc1ccc(N(CC(=O)Nc2ccccc2Cl)S(=O)(=O)c2ccc(C)cc2)cc1OC
    2%	x	-1.7%	7%
> COc1ccc(NC(=O)CN(C)C(=O)C2CC(=O)N(Cc3ccc(C)cc3)C2)cc1 (stereo not given)
    -11%	x	0.3%	x

# (more compounds)
# Sequence of screens: Rango dissoc inh	GLA inh pH 4.5	Rango complex inh	miR-21 reporter
> O=C(CN(Cc1ccco1)C(=O)c1ccc(F)cc1F)Nc1ccccc1C(F)(F)F
    0%	x	-2.5%	x
> O=C(OCc1cc(=O)c(OC(=O)c2ccccc2)co1)c1ccccc1
    11%	x	-1.9%	x
> CC1CN(C(=O)C2CC(=O)N(c3ccc(Cl)cc3)C2)CC(C)O1 (stereo not given)
    7%	x	-1.9%	0%
> C/C(=N\Nc1nc2ccc(Cl)cc2o1)c1ccccc1
    0%	-4	2.6%	-57%
> Nc1c(C(=O)CSc2nnc(COc3ccc(Cl)cc3)o2)c(=O)[nH]c(=O)n1C1CC1
    -13%	x	-3.8%	x
> COc1ccc(-c2cnc3nc(/N=C/N(C)C)nn3c2/N=C/N(C)C)cc1
    0%	-2	-0.8%	-4%
> O=C1c2[nH]c(=O)[nH]c(=O)c2CN1Cc1ccccc1
    -8%	x	0.0%	x
> Brc1ccc(CN2CCN(c3ccccc3)CC2)o1
    u	x	0.8%	-5%
> O=C(CN1C(=O)CCS(=O)(=O)c2ccccc21)Nc1ccccc1F
    6%	x	-4.7%	-1%
> CCCCCc1cc(=O)oc2c(C(CCN3CCN(c4ccccc4)CC3)c3ccc4c(c3)OCO4)c(OC)cc(OC)c12 (stereo not given)
    2%	-8	0.0%	1%
> Cc1ccc(OCC(=O)N2CCCCC2C)c([N+](=O)[O-])n1 (stereo not given)
    -12%	x	0.3%	x
> O=C(Cc1nc2ccccc2s1)c1ccc(O)cc1O
    x	-4	x	-52%
> CCOc1ccc2nc(NCCNC(=O)c3cc(OC)c(OC)c(OC)c3)c(C#N)cc2c1
    u	x	4.1%	-3%
> O=C1CCN(Cc2ccccc2)C=C1C(=O)c1ccccc1
    9%	x	0.5%	x
> COCCNC(=O)CSc1nc2cc(OC)c(OC)cc2c(=O)n1Cc1ccc(OC)cc1
    5%	7	2.0%	1%

# Following part:
# Sequence of screens: Rango dissoc inh	GLA inh pH 4.5	Rango complex inh	miR-21 reporter
> CCCCCCSc1ccc([C@H]2N[C@@](Cc3ccccc3)(C(=O)OC)[C@H]3C(=O)N(C)C(=O)[C@@H]23)cc1OC
    11%	x	6.1%	x
> CCN(c1ccccc1)S(=O)(=O)c1ccc(Oc2ccc(-n3ccnc3)cc2)nc1
    13%	1	0.2%	-1%
> CCOC(=O)c1c(NC(=O)c2ccco2)sc2c1CCCC2
    7%	4	-1.2%	-3%
> CC(=O)Nc1ccc(S(=O)(=O)N(Cc2cc3ccc(C)cc3[nH]c2=O)CC2CCCO2)cc1 (stereo not given)
    13%	x	-0.2%	2%
> CCCC(NC(=O)c1ccc(Br)o1)c1nc2ccccc2[nH]1 (stereo not given)
    4%	x	-0.6%	x
> O=C(CSc1nc(-c2ccc(F)cc2)cc(C(F)(F)F)n1)NCc1ccco1
    -6%	0	1.6%	-6%
> CN1CCN(C(=O)C23CC4CC(C2)CC(c2ccccc2)(C4)C3)CC1
    -7%	5	-6.2%	3%
> O=C(CSC1=NS(=O)(=O)c2cc(Cl)ccc2N1)Nc1cccc(F)c1
    5%	x	-3.3%	x
> CSCCC(NC(=O)CCC(=O)OCC(=O)[C@@]1(O)CCC2[C@@H]3CCC4=CC(=O)C=C[C@]4(C)C3[C@@H](O)C[C@@]21C)C(=O)O (stereo not given in full)
    -3%	x	0.9%	-43%
> COc1ccc(N(C)S(=O)(=O)c2ccc3c(c2)CCC(=O)N3)cc1
    2%	-28	3.1%	-2%
> CC1=C(C(=O)Nc2ccccc2)C(c2ccc(C)o2)n2ncnc2N1 (stereo not given)
    u	1	-0.7%	-8%
> Cc1ccc(NC(=O)Nc2ccccc2C(=O)NCc2ccccc2)cc1
    -2%	-11	2.1%	-36%
> Cc1ccc(NC(=O)c2oc3ccc(S(=O)(=O)N4CCOCC4)cc3c2C)c(C)c1
    11%	1	3.6%	1%&0%
> CCC(=O)N1c2ccc(S(=O)(=O)NCCc3ccccc3)cc2CC1C (stereo not given)
    6%	x	0.5%	0%&1%
> COc1ccccc1CNc1nc2nc(C)cc(=O)n2[nH]1
    -6%	-5	0.5%	-3%

# The listing continues:
# Sequence of screens: Rango dissoc inh	GLA inh pH 4.5	Rango complex inh	miR-21 reporter
> CC(=O)c1cccc(S(=O)(=O)N2CCC(c3nc4ccccc4[nH]3)CC2)c1
    11%	x	0.9%	5%
> O=C(Nc1cccc(F)c1)c1ccc2c(c1)OCO2
    -11%	-5	-0.5%	-44%
> CCN1CCN(CCCNC(=O)c2ccc(NC(=O)C3=CSCCO3)cc2)CC1
    -9%	x	2.1%	-9%
> CCOc1cc(/C=N\n2nnnc2N)ccc1O
    0%	x	0.2%	-5%
> c1ccc(-c2nnc(CSc3nc4ccccc4[nH]3)o2)cc1
    1%	-3	4.5%	-15%
> COc1ccccc1N1CCN(C(=O)c2cc(S(=O)(=O)N3CCOCC3)ccc2C)CC1
    1%	x	-0.7%	x
> CC1(C)Cc2cccc(OCC(=O)N3CCN(c4ccccc4)CC3)c2O1
    4%	4	-2.3%	-9%
> COc1cccc(SCC2CSc3nc4ccccc4c(=O)n32)c1 (stereo not given)
    2%	4	1.6%	-9%
> CCOC(=O)CN(C(=O)CSc1nnnn1C)c1ccccc1
    0%	x	1.5%	x
> Cc1ccc(OCC(=O)NNC(=O)C2CCC2)cc1C
    1%	x	-2.6%	x
> CC(C)c1ccc(C(=O)NCCCNC(=O)c2cnccn2)cc1
    1%	x	6.1%	0%
> CCCc1c(C)c(C#N)c2nc3ccccc3n2c1NCCCN1CCOCC1
    u	12	u	-5%
> CCOC(=O)c1cnc2ccc(OCC)cc2c1N1CCN(c2ccccc2OC)CC1
    -3%	-10	-0.1%	16%
> CC1(C2CC2)NC(=O)N(CC(=O)Nc2ccccc2-c2ccccc2)C1=O (stereo not given)
    1%	2	1.0%	-4%
> O=C(Cc1cn2ccsc2n1)Nc1cccc2cnccc12
    -5%	6	1.0%	-4%

# New compounds follow.
# Sequence of screens: Rango dissoc inh	GLA inh pH 4.5	Rango complex inh	miR-21 reporter
> COc1ccc2c([N+](=O)[O-])c(N3CCCC3)[nH]c2c1
    0%	x	0.3%	-19%
> CC(=O)c1cccc(S(=O)(=O)N2CCN(c3ccccc3F)CC2)c1
    -5%	-1	1.2%	0%&10%
> O=C(Nc1cccc2ccccc12)/C(=C/c1cccc([N+](=O)[O-])c1)NC(=O)c1cccs1
    -29%	-6	-2.4%	-2%
> COc1ccc(OC)c(NC(=O)CSc2nc3ccccc3c(=O)n2CCNC(C)=O)c1
    -10%	-8	0.4%	-1%
> Cc1ccc(-c2nn(-c3ccccn3)c(=O)c3ccccc23)cc1C
    -5%	-4	1.6%	-13%
> c1ccc(-n2nnnc2NC2CCCCC2)cc1
    -15%	-3	-2.5%	2%
> O=C(COC(=O)c1cccnc1)c1ccc(Cl)c(Cl)c1
    -8%	-26	0.8%	-3%
> C=CCC1CCCCC12NC(=O)N(c1ccccc1)N2 (stereo not given)
    22%	-1	2.9%	-11%
> CC(=O)c1ccc(NC(=O)CCc2nc3sc4c(c3c(=O)[nH]2)CCCC4)cc1
    -21%	x	u	x
> CN(C)S(=O)(=O)c1cccc(NC(=O)c2ccc(S(=O)(=O)N3CCCC3)cc2)c1
    -6%	x	1.3%	x
> COc1ccc(NC(=O)CN2CCC(C(N)=O)CC2)cc1
    11%	4	4.5%	-5%
> COc1ccc2[nH]cc(CCn3ccc(O)c(C/C=C/c4ccccc4)c3=O)c2c1
    8%	4	-2.9%	17%
> Cc1c(C(c2cc(O)ccc2O)c2c(C)n(C)n(-c3ccccc3)c2=O)c(=O)n(-c2ccccc2)n1C
    2%	x	-1.1%	x
> COc1ccccc1C(=O)COC(=O)/C(=C/c1ccccc1)NC(C)=O
    12%	x	-4.8%	x
> O=C(CNC(=O)c1ccccc1F)OCc1nc2ccc(Cl)cc2n1CCO
    -7%	x	-3.4%	x

# Full records, looked up by structure. Screens in order: Rango dissoc inh	GLA inh pH 4.5	Rango complex inh	miR-21 reporter
# Profile of Cc1c(C(c2cc(O)ccc2O)c2c(C)n(C)n(-c3ccccc3)c2=O)c(=O)n(-c2ccccc2)n1C → 2%	x	-1.1%	x
# Profile of CC(=O)c1ccc(NC(=O)CCc2nc3sc4c(c3c(=O)[nH]2)CCCC4)cc1 → -21%	x	u	x
# Profile of CC(=O)c1cccc(S(=O)(=O)N2CCN(c3ccccc3F)CC2)c1 → -5%	-1	1.2%	0%&10%

# The results go on.
# Sequence of screens: Rango dissoc inh	GLA inh pH 4.5	Rango complex inh	miR-21 reporter
> Cc1noc(C)c1CN(C(=S)NC1CC2CCC1C2)c1ccccc1 (stereo not given)
    -1%	-10	3.5%	2%
> CCOC(=O)COc1ccc(S(=O)(=O)NCc2ccco2)cc1
    -19%	3	3.7%	-4%
> CN1C(=O)C2CN(CCc3ccccc3)CNC2N(C)C1=O (stereo not given)
    2%	5	-0.3%	0%
> CC(C)Oc1ccc(S(=O)(=O)N2CCOCC2)cc1NC(=O)Cc1cccs1
    2%	x	0.4%	x
> COc1ccc(NC2CCCN(C(=O)Cn3ccc(C)n3)C2)cc1OC (stereo not given)
    -3%	x	2.0%	1%
> COc1cc2oc3ccccc3c2cc1N(CC(=O)N1CCCCC1)S(=O)(=O)c1ccc(C)cc1
    0%	0	0.3%	5%
> CCOc1ccc2[nH]c(=O)c(C(c3nnnn3CCOC)N3CCOCC3)cc2c1 (stereo not given)
    2%	7	0.0%	-7%
> CCN1CCC2(CCN(Cc3cn[nH]c3-c3ccc(OC)c(F)c3)C2)C1 (stereo not given)
    16%	-22	1.3%	-7%
> CSCC[C@H](N)C(=O)NCC1CCC(C(=O)Nc2ccc3c(c2)OCO3)CC1 (stereo not given in full)
    -5%	x	0.7%	0%
> CC(=O)COC(=O)CNC(=O)c1ccc(Br)cc1
    -6%	-1	-1.8%	0%

# Three structures already listed, sorted by length of the SMILES, low to high.
# Sequence of screens: Rango dissoc inh	GLA inh pH 4.5	Rango complex inh	miR-21 reporter
> O=C(Cc1nc2ccccc2s1)c1ccc(O)cc1O
    x	-4	x	-52%
> O=C(Nc1cccc(F)c1)c1ccc2c(c1)OCO2
    -11%	-5	-0.5%	-44%
> COCCNC(=O)CSc1nc2cc(OC)c(OC)cc2c(=O)n1Cc1ccc(OC)cc1
    5%	7	2.0%	1%

# Assay outcomes (PubChem BioAssay)
